Beta cell apopt: beta cell apoptosis inhibition; AID 435005; protection from apoptosis, % (no concentration beside the values); 300,000 compounds, 0.8% hits; INS-1E cytokine-induced death, ATP luminescence, 48 h; percent of positive-control rescue, neutral wells zero;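 active = all replicates at 75% or more, or half of them and the mean; inconclusive = half reach 75% but not the mean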;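 note: 0% = cytokine-treated negative control wells and 100% = positive control rescue; higher means more ATP so stronger rescue from cytokine killing; wells of about 40 µL received 100 nL stock; the first replicate is given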
AF4-AF9 inh: MLL-AF4/AF9 protein interaction inhibition. 350,000 compounds, 0.47% hits. inhibition, % at 10 µM. AlphaScreen, biotin-AF4 peptide binding to FLAG-AF9;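 active = every replicate reaching a set inhibition limit, whatever the replicate mean, cut at about 25% in these data; inconclusive = mean inhibition reaches that limit but some replicates miss it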;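 note: 0% = plate neutral control median and 100% = total signal loss; the record names both 10 and 1 µM as test concentration; the first replicate is given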
Target sequence (P42568 whole entry, looked up): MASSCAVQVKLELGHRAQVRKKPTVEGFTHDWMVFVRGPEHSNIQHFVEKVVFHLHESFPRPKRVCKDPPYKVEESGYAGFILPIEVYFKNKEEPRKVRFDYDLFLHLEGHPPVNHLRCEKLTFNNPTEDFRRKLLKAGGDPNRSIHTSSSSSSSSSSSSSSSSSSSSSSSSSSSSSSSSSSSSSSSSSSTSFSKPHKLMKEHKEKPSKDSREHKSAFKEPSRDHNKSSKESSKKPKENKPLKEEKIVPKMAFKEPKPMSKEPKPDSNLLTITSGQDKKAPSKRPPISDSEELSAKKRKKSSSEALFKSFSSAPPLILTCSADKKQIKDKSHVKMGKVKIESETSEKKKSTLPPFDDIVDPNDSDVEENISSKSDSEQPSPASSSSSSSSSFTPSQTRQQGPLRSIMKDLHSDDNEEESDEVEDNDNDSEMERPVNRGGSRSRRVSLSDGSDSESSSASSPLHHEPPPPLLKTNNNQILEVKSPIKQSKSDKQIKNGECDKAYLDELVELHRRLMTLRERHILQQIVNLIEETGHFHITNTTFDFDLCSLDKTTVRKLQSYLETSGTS
ALR H2O2 inh: human ALR oxidase inhibition via reduced H2O2. purified ALR, DTT oxidation, H2O2 HRP-luminol luminescence. inhibition, % (test concentration not listed). 290,000 compounds, 3.8% hits. AID 485317;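 active = mean and each replicate at 75% or more; inconclusive = only one of the two met; inactive = neither met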;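 note: stock transfer was 7.5 nL into about 7.5 µL; 0% = neutral wells and 100% = wells with inactivated enzyme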
Target sequence (P55789 whole entry, looked up): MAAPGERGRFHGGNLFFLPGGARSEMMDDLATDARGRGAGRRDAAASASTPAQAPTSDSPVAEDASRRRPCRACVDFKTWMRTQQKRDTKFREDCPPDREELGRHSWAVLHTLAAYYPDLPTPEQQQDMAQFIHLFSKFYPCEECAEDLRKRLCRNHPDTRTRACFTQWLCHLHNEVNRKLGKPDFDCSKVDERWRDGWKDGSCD
RanGTP-Impb inh: disruptors of Ran-importin-beta complex formation – biochemical, FRET, CFP-Ran, YFP-importin-beta, homogeneous, primary screen; cell-free CFP-Ran/YFP-importin-beta FRET ratio; inhibition, % (test concentration not listed); 300,000 compounds, 1.1% hits; AID 2216;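 active = most replicates above 15%; inconclusive = exactly half above 15%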;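 note: 0% = DMSO wells and 100% = Ran loaded with GDP instead of GTP; wells of about 40 µL received 100 nL stock; the first replicate is given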
Ecoli rRNA inh: inhibits bacterial ribosomal RNA function over humanized ribosomes; E. coli WT GFP vs humanized-ribosome RFP mutants, fluorescence, 24 h; active compounds read low; DMSO median 0, no signal -100; GFP signal change (wild-type ribosome), % (test concentration not listed); 350,000 compounds, 1.6% hits; AID 720706;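 active = significant combined selectivity score with lowered wild-type GFP, culture density cut under 30%, mutant RFP and density less affected; inactive = any of these conditions unmet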; note: one replicate is shown; some compounds called inactive have numbers as strong as hits
FGF22 binding: FGF22 (human) thermal shift binding; Q9HCT0; recombinant FGF22 thermal shift, SYPRO orange fluorescence; percent of sucrose octasulfate shift, DMSO zero; calls only at 9.99 µM; 340,000 compounds, 1.5% hits;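 active = melting point raised past a set limit in the mean and every replicate; inconclusive = no clear call; three in four hits are not shown here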
Target sequence (Q9HCT0 whole entry, looked up): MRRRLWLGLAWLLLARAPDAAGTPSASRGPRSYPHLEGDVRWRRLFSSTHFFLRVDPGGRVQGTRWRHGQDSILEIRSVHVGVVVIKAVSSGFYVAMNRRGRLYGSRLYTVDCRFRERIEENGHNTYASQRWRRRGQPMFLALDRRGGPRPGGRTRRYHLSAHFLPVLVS
T cruzi inh: T. cruzi replication inhibition | inhibition, % (no concentration beside the values) | 300,000 compounds, 1.4% hits | T. cruzi beta-gal in NIH3T3, luminescence, 90 h | AID 1885;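 active = mean inhibition across valid replicates above about 55%, limit read from the data; inconclusive = mean below that limit but half or more replicates reach it; inactive = mean below it, under half of replicates reach it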;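 note: signal also drops with host cell toxicity which is not excluded here; 0% = plate median of DMSO wells and 100% = zero luminescence signal; higher percent means less beta-gal luminescence so fewer parasites; stock transfer was 50 nL into about 50 µL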
Calb FLC: affects C. albicans growth with fluconazole; growth inhibition, % (concentration not given with the values); 300,000 compounds, 0.57% hits; AID 1979; C. albicans CaCi-2 (fluconazole-resistant clinical isolate) + fluconazole, Alamar Blue growth, 48 h;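 active = most replicates above 75%; inconclusive = exactly half above 75%; inactive = most below 75%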;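 note: all wells also contain fluconazole at 8 µg/ml as a sub-toxic cotreatment; 0% = median of DMSO wells and 100% = median of geldanamycin control wells; wells of about 8 µL received 7.5 nL stock; the first replicate is given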
Ecoli rRNA inh OD600: further read-out of Ecoli rRNA inh, marked with its call; OD600 change, %; measured here: OD600 growth;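 optical density of the mix in the first replicate; 0 = DMSO median and -100 = no signal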
Ecoli rRNA inh RFP: second read-out of Ecoli rRNA inh, no call of its own (marks repeat the call); RFP signal change, %; measured here: RFP humanized mutant strains;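 first replicate; 0 = DMSO median and -100 = no signal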
* = called active by the depositor; i = inactive; ? = inconclusive; . = not tested or not shown; + = active, no number; & = joins results of further samples.

SMILES	Beta cell apopt	AF4-AF9 inh	ALR H2O2 inh	RanGTP-Impb inh	Ecoli rRNA inh	Ecoli rRNA inh OD600	Ecoli rRNA inh RFP	FGF22 binding	T cruzi inh	Calb FLC
O=C(Nc1ccc([N+](=O)[O-])cc1)c1ccccc1F	1	-3.4	-5	-11	11	6	2.0	i	-5	8
Cc1ccccc1OCC(=O)N(Cc1cccs1)C1CCS(=O)(=O)C1 (stereo not given)	-12	.	97*	-0.8	.	.	.	.	-10	-5
CCOc1cc(C(=O)Nc2ccc(N3CCN(S(C)(=O)=O)CC3)cc2)cc(OCC)c1OCC	-4	.	0	3.6	.	.	.	.	3	-17
N=c1oc2ccccc2cc1C(=O)Nc1cccc(F)c1	3	0.6	.	-3.6	5	22	-1.5	i	-9	-9
CC(C)OCCCN1CN(S(=O)(=O)c2cccs2)c2nc3ccccc3nc21	2	15	1	0.0	-5	-23	26	i	-8	15
CC(C)Cc1nc2c(nnn2Cc2ccccc2F)c(=O)[nH]1	-4	38*	-2	0.8	-9	-14	-1.4	i	-1	-1
Cc1cc(C(=O)CN2C(=O)NC3(CCCCC3C)C2=O)c(C)n1Cc1cccs1 (stereo not given)	-3	.	-4	4.2	.	.	.	.	23	-7
CCc1nnc(N/N=C/c2ccc(N3CCC(C)CC3)c([N+](=O)[O-])c2)n1N	-3	6.6	-6	-2.6	-29	-24	-5.0	i	21	18
C=CCn1c(SCC(=O)c2ccc(F)cc2)nnc1-c1ccc2c(c1)OCO2	2	-1.0	71	3.0	-16	-23	-2.1	i	3	-2
N#C/C(=C\c1ccccc1)C(=O)OCC(=O)N1CCCC1	3	-2.0	11	-0.3	26	16	5.3	i	-2	-13
COc1ccccc1CNC(=O)COC(=O)Cc1ccsc1	.	-2.2	.	-4.7	7	5	-0.7	i	-8	4
O=C(O)Cc1sc(Nc2ccc(Cl)cc2)nc1-c1cccs1	.	-2.8	.	12	-12	2	13	+	-2	-2
N=c1n(CC(=O)c2ccc([N+](=O)[O-])cc2)c2ccccc2n1Cc1ccc(Cl)cc1	3	.	-1	-3.5	.	.	.	.	22	-15
O=C(NC1CC1)C1=C[C@@H](c2coc3ccccc3c2=O)C[C@@H](OCCCCO)O1	-8	-4.4&-1.3	-1	2.5	3	8	-8.1	i	-11	-6
O=C1OC(c2ccccc2)=N/C1=C\C=C\c1ccccc1[N+](=O)[O-]	-2	-0.4	5	2.1	7	15	1.7	i	-12	6
Cc1ccc(C)c(N2CCN(C(=O)Nc3ccc4c(c3)N(C)C(=O)CS4)CC2)c1	37	0.6	-2	5.1	-14	-25	13	i	1	8
Cc1ccc(C)c(N2CCN(C(=O)Cn3c(=O)[nH]c4ccsc4c3=O)CC2)c1	4	.	53	-2.1	.	.	.	.	-4	27
O=C(O)c1ccccc1C(=O)Nc1ccc(-n2nccc2C(F)(F)F)cc1	2	0.4	-1	1.4	-1	-1	-4.7	i	9	0
Cc1cc(C2=NNC(=NC3CC3)SC2)c(C)n1-c1ccccc1	.	-4.4	.	3.3	11	12	0.7	i	16	10
COc1ccc(/C=N/N2CCN(C)CC2)cc1O	-7	.	99*	-2.9	.	.	.	.	17	8
COc1ccc(C(=O)N/N=C/c2ccc(OC)c(CSc3ccccn3)c2)cc1	6	-2.3	99*	-5.1	-3	-8	0.0	i	3	9
Nc1c2nc(-c3ccccc3Cl)[nH]c(=O)c2nc(=O)n1-c1ccccc1	2	7.2	-1	1.7	6	-3	-4.4	i	2	9
O=C(Nc1cccc(F)c1)C1CC(=O)N(c2ccc(Cl)cc2)C1 (stereo not given)	1	.	-5	0.8	.	.	.	.	-1	1
COc1ccc(NC(=O)N(C)C[C@H]2Oc3c(NS(=O)(=O)c4cn(C)cn4)cccc3C(=O)N([C@H](C)CO)C[C@@H]2C)cc1	-6	-1.9&-0.9	.	.	1&8	7&17	0.0&0.5	i	.	.
O=[N+]([O-])c1ccc(Cl)c(S(=O)(=O)Nc2cccc(-c3ccc(N4CCCC4)nn3)c2)c1	.	-2.7	-7	?	-1	2	-2.0	i	37	18
CC/C(=C\C(=O)c1ccncc1)Nc1ccc(Br)cc1	-27	.	-5	?	.	.	.	.	-4	30
CCN1CCN(S(=O)(=O)c2cc(OC)c(Cl)cc2OC)CC1	-7	9.1	-10	4.4	6	4	1.5	i	-6	2
Cc1[nH]c2ccccc2c1SCCNC(=O)c1ccc(S(=O)(=O)N2CCCC2)cc1	2	6.1	0	-2.3	-14	-15	7.6	i	16	-4
CCCC(=O)Nc1ccc(C(=O)Nc2ccc([N+](=O)[O-])cc2OC)cc1	.	1.3	-4	5.9	12	7	-0.2	+	-9	22
Cc1ccc(-n2c(=S)[nH]c3c(oc4ccccc43)c2=O)cc1	-1	.	52	-0.7	.	.	.	.	-7	42
CCCCCn1c(Sc2ccccc2)nc2c1c(=O)[nH]c(=O)n2C	19	-7.5	.	1.0	11	9	1.9	i	7	1
Cc1ccc(NC(=O)C2CC(=O)Nc3ncnn32)c(C)c1 (stereo not given)	2	-0.5	-14	-1.4	10	4	-3.0	i	1	-2
C/C(=N\NC(=O)C(N)=O)c1ccc(Br)cc1	-7	.	-7	5.5	.	.	.	.	7	8
Cc1ccc(CNCC(O)(c2ccc(F)cc2)c2ccc(F)cc2)cc1	-2	.	-2	1.0	.	.	.	.	37	-7
O=C(CNC(=O)c1ccco1)N/N=C/c1ccc(O)cc1O	-2	1.1	75	7.1	-5	4	-1.1	i	4	0
COc1ccc(C(CC(=O)Nc2ccccc2OC)n2cccc2)cc1 (stereo not given)	3	.	0	?	.	.	.	.	5	8
O=C(O)c1cccc(OS(=O)(=O)c2cc(Br)ccc2Br)c1	0	-4.3	2	.	-3	-24	1.6	i	.	.
CC1(C)C2CCC1(CS(=O)(=O)Nc1cccc(S(N)(=O)=O)c1)C(=O)C2 (stereo not given)	-3	-0.4	-4	-1.2	6	14	2.0	i	-11	-11
COc1ccc(-c2n[nH]c(=S)n2/N=C/C=C/c2ccccc2OC)cc1	6	-7.7	49	-0.4	5	0	-4.4	i	-17	-10
COc1ccc2c(Cl)c(C(=O)N/N=C/c3c(C)[nH]c4ccccc34)sc2c1	4	.	2	?	.	.	.	.	35	-14
O=C(NCCc1cccs1)c1ccc(CS(=O)Cc2ccc(Cl)cc2)o1 (stereo not given)	-4	2.0	-1	-0.7	-24*	-19*	-7.8*	i	3	43
COc1ccc(-c2nc(CSCC(=O)NC3CCCc4ccccc43)c(C)o2)cc1 (stereo not given)	1	.	?	3.3	.	.	.	.	20	34
Cc1ccc(S(=O)(=O)Nc2cc(-c3ccccc3)nn2C)cc1Cl	0	-1.6	-5	1.3	-27	-31	-4.5	i	-5	-8
CC1CCCN(CCOCCSc2ccccc2)C1 (stereo not given)	-8	-0.8	-19	1.5	3	-1	1.3	i	60*	0
CC1(C)Cc2c(sc3c2C2=NCCN2C=N3)CS1	-8	.	-28	-13	.	.	.	.	10	-3
O=C(Nc1nc(-c2ccc(F)c(F)c2)cs1)C1=COCCO1	1	0.3	2	.	1	12	-1.3	i	.	.
COC(=O)Cn1cnc2c(oc3ccccc32)c1=O	-1	.	-28	0.5	.	.	.	.	-10	-1
CCOC(=O)C1=C(CS(=O)(=O)c2ccc(C)c(C)c2)NC(=O)NC1c1ccc(O)cc1 (stereo not given)	-3	1.4	1	2.2	-3	-11	-1.8	i	-12	-6
Cc1ccc(S(=O)(=O)NC(Cc2ccccc2)C(=O)NN)cc1 (stereo not given)	-6	1.5	-7	3.7	17	7	2.0	i	-15	-36
O=C(CN1CCN(S(=O)(=O)c2ccc(Cl)cc2)CC1)NCC1(N2CCOCC2)CCCCC1	-6	2.5	0	.	-6	-6	2.0	i	.	.
CCN(CC)c1ccc(NC(=O)CSc2nnc3nc(C)cc(C)n23)cc1	5	.	99*	-1.8	.	.	.	.	-6	1
CCOC(=O)c1cc2c(=O)c3cc(C)ccc3oc2nc1C	5	.	-2	-2.8	.	.	.	.	2	0
Nc1nc(NCc2cccs2)nn1-c1ccccc1	-11	.	8	-2.2	.	.	.	.	5	-11
COc1ccc(C(=O)c2coc3ccc(O)c(CN4CCCC4)c23)cc1	9	-6.9	8	3.1	1	-5	1.9	i	-13	0
CCCCc1nnc(NC(=O)C2CC(=O)N(c3ccc4c(c3)OCCO4)C2)s1 (stereo not given)	-7	-1.1	-2	-2.8	2	15	-12	i	-8	-2
N#CC1=C(SCC(=O)Nc2ccccc2)NC(=O)CC1c1ccc(O)cc1 (stereo not given)	.	-1.9	12	1.5	-8	-7	-0.9	i	-3	2
Cc1nc(N2CCC(C)CC2)c2c(C)c(C(=O)Nc3ccc(C(F)(F)F)cc3)sc2n1	14	0.3	-6	-2.4	5	7	-3.0	i	61*	5
Cc1ccc(-n2cccn2)c(CN2CCCC(C(=O)c3ccc4c(c3)OCO4)C2)c1 (stereo not given)	9	2.7	-8	.	-10	-4	0.1	i	25	28
CC(=O)Nc1ccc(OCC(=O)NCCc2ccc(Cl)cc2)cc1	.	7.3	4	1.7	7	6	-2.0	i	-17	-11
Cc1cc(C)c(C)c(S(=O)(=O)NCc2ccco2)c1C	-7	.	52	2.0	.	.	.	.	-19	-3

Further records
SMILES	Beta cell apopt	AF4-AF9 inh	ALR H2O2 inh	RanGTP-Impb inh	Ecoli rRNA inh	Ecoli rRNA inh OD600	Ecoli rRNA inh RFP	FGF22 binding	T cruzi inh	Calb FLC
CCOC(=O)c1c(C)[nH]c(C(=O)CSc2nc3ccccc3o2)c1C	.	.	-8	?	.	.	.	.	-7	6
O=C(NCc1cccnc1)c1ccc(COc2ccc3c(c2)CCC3)o1	27	1.7	-5	-1.8	-21*	-9.4*	2.0*	.	1	-4
CCOC(=O)C1(CCOc2ccccc2)CCN(Cc2ccc(OC)cc2)CC1	4	4.5	.	-3.6	-20	-20	0.8	i	40	-6
Cc1nonc1CC(=O)N1CCCC(C(=O)c2ccc(Cl)cc2)C1 (stereo not given)	-6	-5.8	-5	-1.9	-1	5	-6.4	i	2	-8
CCOc1ccccc1C(=O)N[C@H](C(=O)NNC(=O)c1cccs1)C(C)C	-7	-32	.	.	-1	-8	-0.6	i	.	.
FC(F)Oc1ccc(NC(=S)Nn2cnnc2)cc1	0	-2.6	19	-3.4	-6	-8	1.7	i	-11	-9
CC(C)CCOc1cccc(OCC(=O)NC2CCS(=O)(=O)C2)c1 (stereo not given)	-2	.	26	-0.7	.	.	.	.	-3	?
COc1ccc(CNC(=O)[C@@H]2CC=C[C@@H]3CCN(Cc4ccccc4)C(=O)[C@@H]32)cc1	-4	-0.3	-2	-2.8	-4	-2	1.7	i	9	0
CC1CCCC(C)N1C(=O)CSc1nc2ccccc2s1 (stereo not given)	-2	.	98*	8.6	.	.	.	.	17	-7
Cc1ccc(C(=O)Nc2ncccc2O)cc1S(=O)(=O)N1CCCCC1	-4	-7.4	.	?	1	-4	0.3	.	-3	3

Compound activity deposited in PubChem by Broad Institute.

A portion of the library; count on the stated rates, not on these rows.
